Assay outcomes as filed in PubChem.
HSV replic up: HSV replication enhancement; HSV replication augmentation in cells, fold increase; actives 0.005% (n = 220,000); maximum fold increase;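 active = peak rise of 1.5-fold or more in the series; inconclusive = self-fluorescent or not available for retest; tested in PC3 cells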;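 also: first round at 10 µM; read as green reporter fluorescence; hits show the peak of a series up to 25 µM; 1 = signal of infected wells without compound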
GALR2 agonist: activates the human galanin receptor 2. O43603. GALR2-expressing cells, agonist activation read-out. activation, %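 (tested at 5 µM)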. actives 0.48% (n = 140,000). AID 803;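 active = above mean plus 3 SD of all compounds, about 5% in these data, not always enough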;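 also: 0% = vehicle buffer wells and 100% = reference agonist at full effect; tested in CHO reporter cells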
Target sequence (O43603 whole entry, looked up): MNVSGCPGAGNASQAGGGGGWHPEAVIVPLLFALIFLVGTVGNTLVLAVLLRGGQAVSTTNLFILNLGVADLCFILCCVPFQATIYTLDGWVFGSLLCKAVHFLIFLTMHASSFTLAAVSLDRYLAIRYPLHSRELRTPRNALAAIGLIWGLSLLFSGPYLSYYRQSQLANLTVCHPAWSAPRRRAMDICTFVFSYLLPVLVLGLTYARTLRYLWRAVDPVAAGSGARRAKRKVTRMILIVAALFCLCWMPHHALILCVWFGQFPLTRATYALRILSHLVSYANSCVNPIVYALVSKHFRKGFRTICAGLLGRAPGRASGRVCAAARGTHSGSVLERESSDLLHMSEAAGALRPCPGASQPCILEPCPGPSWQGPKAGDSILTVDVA
PKD1 kinase inh: blocks activity of human protein kinase D1 | actives 0.056% (n = 200,000) | Q15139 | AID 797 | inhibition, %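 (about 10 µM by stock and volumes)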 | PKD1 kinase fluorescence polarization assay;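 active = inhibition of 50% or more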;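 also: controls were vehicle for no effect and a reference inhibitor for full effect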
RGS16-Gao: RGS16-Galphao interaction regulator (human). binding response (% of control), % at 10 µM. actives 0.38% (n = 220,000). bead-based flow cytometry RGS16-Galphao binding, fluorescence; actives lie on both sides;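 active = below 25% or above 175%, edge rows of some plates excepted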;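 also: Galphao activated by GDP with aluminum fluoride before binding; 100% = wells without compound and 0% = beads without RGS; some results beyond the cut were filed as inactive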
Target sequence (O15492 whole entry, looked up): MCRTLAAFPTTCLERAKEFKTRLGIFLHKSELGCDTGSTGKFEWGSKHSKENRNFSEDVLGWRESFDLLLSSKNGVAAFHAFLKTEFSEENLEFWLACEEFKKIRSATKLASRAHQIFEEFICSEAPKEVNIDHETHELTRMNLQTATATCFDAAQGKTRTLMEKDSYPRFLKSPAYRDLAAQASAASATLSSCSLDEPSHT
Target sequence (P09471 whole entry, looked up): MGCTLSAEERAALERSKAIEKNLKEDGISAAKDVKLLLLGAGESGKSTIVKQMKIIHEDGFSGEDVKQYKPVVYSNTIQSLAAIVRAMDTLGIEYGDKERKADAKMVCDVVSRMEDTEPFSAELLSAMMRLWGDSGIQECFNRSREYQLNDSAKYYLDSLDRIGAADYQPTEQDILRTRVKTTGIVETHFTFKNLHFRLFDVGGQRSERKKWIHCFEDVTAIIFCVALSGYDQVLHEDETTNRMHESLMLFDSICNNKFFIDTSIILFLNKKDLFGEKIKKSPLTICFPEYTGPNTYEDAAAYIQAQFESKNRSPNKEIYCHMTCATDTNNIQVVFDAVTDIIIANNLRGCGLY
INS promoter inh: TRM-6 insulin promoter activity inhibition. inhibition, % at 2 µM. TRM-6 cells (human fetal islet line), insulin promoter-eGFP reporter, imaging; reporter expression induced with tamoxifen. actives 0.9% (n = 130,000);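 active = inhibition above the mean plus 3 SD, with well images judged a real hit on visual review, cut at about 60% in these data, passing the limit was not always enough; inconclusive = inhibition over the cutoff but images rejected on review; inactive = inhibition not above the cutoff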
INS promoter inh cell count: second read-out of INS promoter inh, no call of its own (marks repeat the call); normalized cell count, %; measured here: cell count, toxicity; reference of the scale not given here;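 cells exposed to compound for 48 h; stained nuclei by imaging scaled within each plate; lower means fewer cells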
HSV replic up primary fold: recorded beside HSV replic up, whose call it bears; fold increase; compound at 10 µM; measured here: primary screen fold increase 10 uM; tested in PC3 cells;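 GFP signal in the first replicate; 1 = infected wells without compound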
Active calls of the source: *; i = inactive; ? = inconclusive; . = not tested or not shown; [ ] = dose if it differs, or a comment.

SMILES | HSV replic up | HSV replic up primary fold | GALR2 agonist | PKD1 kinase inh | RGS16-Gao | INS promoter inh | INS promoter inh cell count
CSc1nc2nc3c(cc2c(=O)n1-c1ccccc1C)COC(C)(C)C3 | i | 0.95 | . | . | 111 | . | .
CC(Sc1ccccc1)C(=O)Nc1ccc(S(=O)(=O)N2CCOCC2)cc1 (stereo not drawn) | i | 0.97 | -1.5 | -9 | 55 | 45 | 154
CC(C)[C@H](NC(=O)Nc1ccccc1F)C(=O)O | i | 1 | -1.5 | -2 | 102 | 25 | 53
c1ccc(NCc2ccccn2)cc1 | i | 0.99 | . | 5 | 107 | . | .
CCSc1nnc(-c2cc(Br)ccc2N)c(=O)[nH]1 | i | 0.88 | . | -4 | 107 | 15 | 115
COc1cc(OC)cc(C(=O)N[C@H](C(=O)Nc2cc(C)cc(C)c2)C(C)C)c1 | i | 1.1 | . | -6 | 91 | . | .
COc1ccc2c(c1)CC/C(=C\C=C\c1ccccc1OC)C2=O | i | 1.2 | -2.3 | -13 | 123 | -16 | 120
C/C(=N\NC(=O)c1ccco1)c1ccc(NC(=O)c2ccccc2)cc1 | i | 0.78 | . | -7 | 115 | -10 | 159
COc1ccccc1NC(=O)CCN1CCN(C)CC1 | i | 1.1 | . | -3 | 89 | . | .
C/C(=N\OCc1ccc(C#N)cc1)c1cc2ccccc2o1 | i | 1 | . | . | 105 | . | .
CC1CCc2nc(NC(=O)C3CCCO3)sc2C1 (stereo not drawn) | i | 1.1 | -0.1 | -7 | 89 | 11 | 137
COC(=O)Cc1ccc(NC(=S)NNC(=O)C2CC2)cc1 | i | 1.2 | . | . | 96 | . | .
CCCn1c(C(C)NC(C)=O)nc2ccccc21 (stereo not drawn) | i | 0.98 | -1.2 | -5 | 144 | 20 | 154
O=C(NCCc1csc(-c2ccccc2)n1)c1ccc(Br)o1 | i | 0.88 | -2.2 | 7 | 101 | . | .
C[C@H](NC(=O)c1[nH]cnc1C(=O)Nc1ccccc1)C(=O)OC(C)(C)C | i | 0.82 | . | . | 107 | . | .
O=C(c1c[nH]c2ccc(S(=O)(=O)N3CCOCC3)cc2c1=O)N1CCN(c2ccccn2)CC1 | i | 1 | -1.7 | 0 | 98 | 72 | 130
Cc1ccc(SCC(=O)O/N=C(\N)c2cccc([N+](=O)[O-])c2)cc1 | . | . | -3.6 | -4 | 102 | 20 | 108
CCCCCn1c(CN2CCN(Cc3ccccc3)CC2)nc2c1c(=O)n(C)c(=O)n2C | i | 0.96 | 0.9 | -4 | 96 | -4 | 99
Cc1ccc(NC(=O)NC(=O)N(C(C)C)S(C)(=O)=O)nc1 | i | 1.1 | -2.9 | 0 | 239*[activator] | -22 | 94
Cc1ccc(C(=O)N/C(=C/c2ccc(-c3cc(C(F)(F)F)ccc3Cl)o2)C(=O)NCc2cccnc2)cc1 | i | 1 | 1.4 | -3 | 103 | . | .
Cc1cc2nc(-c3ccc(SCC(=O)Nc4ccc(S(=O)(=O)N5CCCC5)cc4)nc3)[nH]c2cc1C | i | 0.78 | 1.0 | 4 | 105 | 9 | 136
COc1ccc(O)c(/C=N/Nc2nc(Nc3ccccc3)nc(-n3nc(C)cc3C)n2)c1 | i | 0.85 | 2.4 | 0 | 101 | 14 | 123
O=C(CNC(=O)c1cccs1)OCC(=O)c1ccc(Br)cc1 | i | 1 | . | 4 | 33 | -12 | 59
COc1ccccc1-n1c(SCC(=O)Nc2ccccc2F)nc2[nH]ncc2c1=O | i | 0.76 | -0.7 | 0 | 99 | -23 | 108

Next section, starting with the last three of the part before.
SMILES | HSV replic up | HSV replic up primary fold | GALR2 agonist | PKD1 kinase inh | RGS16-Gao | INS promoter inh | INS promoter inh cell count
COc1ccc(O)c(/C=N/Nc2nc(Nc3ccccc3)nc(-n3nc(C)cc3C)n2)c1 | i | 0.85 | 2.4 | 0 | 101 | 14 | 123
O=C(CNC(=O)c1cccs1)OCC(=O)c1ccc(Br)cc1 | i | 1 | . | 4 | 33 | -12 | 59
COc1ccccc1-n1c(SCC(=O)Nc2ccccc2F)nc2[nH]ncc2c1=O | i | 0.76 | -0.7 | 0 | 99 | -23 | 108
O=C(/C=C/c1ccco1)N1CCN(S(=O)(=O)c2cccs2)CC1 | ? | . | . | . | 82 | . | .
CCOC(=O)c1c(NC(=S)NC)sc2c1CCCC2 | i | 0.87 | . | . | 99 | . | .
CN1C(C)(C)CC(NC(=O)CCC(=O)NC2CC(C)(C)N(C)C(C)(C)C2)CC1(C)C | i | 0.86 | -1.8 | -10 | . | 20 | 104
COC(=O)c1ccccc1NC(=O)CNC(=O)c1ccco1 | i | 0.91 | 0.0 | -2 | 96 | 0 | 127
CC1CCc2nn(CC(=O)NCc3ccco3)cc2C1 (stereo not drawn) | i | 0.85 | -1.8 | 6 | 109 | . | .
CCOc1ccccc1NC(=O)COC(=O)c1cc[n+]([O-])cc1 | i | 0.92 | . | . | 101 | . | .
COc1ccc(C)cc1NC(=O)N1CCCc2ccccc21 | i | 0.99 | . | -9 | 96 | . | .
N#C/C(=C/c1ccc(-c2ccc(C(=O)O)c(Cl)c2)o1)C(=O)NCC1CCCO1 (stereo not drawn) | i | 1.1 | 0.2 | 2 | 100 | 17 | 110
O=C(CSc1nn(-c2ccccc2)c(=S)s1)Nc1ncccn1 | i | 1.1 | . | -2 | 104 | -377 | 30
O=C(CCN1C(=O)C2C3C=CC(C3)C2C1=O)N1CCCCC1 (stereo not drawn) | i | 0.97 | . | 10 | 102 | . | .
Cc1onc(-c2ccccc2Cl)c1C(=O)Nc1cccc(-c2cn3cccnc3n2)c1 | i | 1.1 | -1.0 | -8 | 102 | 52 | 137
CC(CCc1ccccc1)NC(=O)c1ccc2nc(N3CCOCC3)sc2c1 (stereo not drawn) | i | 0.96 | . | 0 | 106 | 50 | 65
COc1ccc(/C=C/c2nnc(NC(=O)CSc3ccc(C)cc3)s2)cc1 | i | 0.75 | . | . | 112 | . | .
COc1ccc(/C=N/S(=O)(=O)c2ccccc2)cc1OC | i | 0.92 | . | -13 | 100 | . | .
CN(C)C(=O)c1noc2cc([N+](=O)[O-])ccc12 | i | 1.2 | -0.3 | -14 | 103 | -40 | 34
Cc1cccc(NC(=O)c2ccc(S(=O)(=O)N(C)C)cc2)c1 | i | 0.85 | -2.6 | -17 | 107 | . | .
COc1ccc(/C=C/C(=O)O)cc1S(=O)(=O)N1CCCc2ccccc21 | i | 0.97 | . | -3 | 101 | 7 | 119
CC(=O)N1CCN(C(=O)c2cc(C)nc3ccccc23)CC1 | i | 1.1 | . | -1 | 102 | 71* | 88*
Cc1cc(NC(=O)C23CCC(C)(c4nc5cc(Cl)c(Cl)cc5nc42)C3(C)C)no1 (stereo not drawn) | . | . | -2.0 | -2 | . | -412 | 73
CCC(=O)Nc1ccc(N2CCN(C(=O)c3ccccc3C)CC2)cc1 | i | 0.93 | 0.9 | -6 | 103 | -26 | 84
COc1cc(N2CCCC2)ccc1C=O | i | 0.87 | . | 5 | 99 | . | .
COc1ccc(OCC(=O)NNC(=O)Cc2coc3cc(OC)ccc23)cc1 | i | 1.4 | 0.3 | 0 | 101 | . | .
CCN(CC)S(=O)(=O)c1cccc(NC(=O)c2ccc(SC)cc2OC)c1 | i | 0.9 | . | 11 | 104 | -67 | 110
COc1ccc(N(C(=O)c2ccccc2OC(C)=O)C(C)C2CC2)cc1 (stereo not drawn) | i | 0.66 | -0.9 | -4 | 103 | -11 | 79

The closing seven entries of the part before open the next one.
SMILES | HSV replic up | HSV replic up primary fold | GALR2 agonist | PKD1 kinase inh | RGS16-Gao | INS promoter inh | INS promoter inh cell count
CC(=O)N1CCN(C(=O)c2cc(C)nc3ccccc23)CC1 | i | 1.1 | . | -1 | 102 | 71* | 88*
Cc1cc(NC(=O)C23CCC(C)(c4nc5cc(Cl)c(Cl)cc5nc42)C3(C)C)no1 (stereo not drawn) | . | . | -2.0 | -2 | . | -412 | 73
CCC(=O)Nc1ccc(N2CCN(C(=O)c3ccccc3C)CC2)cc1 | i | 0.93 | 0.9 | -6 | 103 | -26 | 84
COc1cc(N2CCCC2)ccc1C=O | i | 0.87 | . | 5 | 99 | . | .
COc1ccc(OCC(=O)NNC(=O)Cc2coc3cc(OC)ccc23)cc1 | i | 1.4 | 0.3 | 0 | 101 | . | .
CCN(CC)S(=O)(=O)c1cccc(NC(=O)c2ccc(SC)cc2OC)c1 | i | 0.9 | . | 11 | 104 | -67 | 110
COc1ccc(N(C(=O)c2ccccc2OC(C)=O)C(C)C2CC2)cc1 (stereo not drawn) | i | 0.66 | -0.9 | -4 | 103 | -11 | 79
COc1ccc(-n2ccc(=O)c3c2CCCC3=O)cc1 | i | 0.94 | -1.8 | 9 | 102 | . | .
CCOc1ccc(C(=O)N[C@H](C(=O)Nc2ccc(OC)c(S(=O)(=O)N3CCOCC3)c2)C(C)C)cc1 | i | 0.94 | . | -3 | 111 | . | .
COc1ccccc1OCCNC(=O)C(=O)c1c[nH]c2ccccc12 | i | 0.89 | . | . | 97 | . | .
COC(=O)CSc1nc2ccc(NC(C)=O)cc2s1 | i | 0.97 | -1.3 | 2 | 104 | . | .
COC(=O)c1ccc(NC(=O)CCS(=O)(=O)c2ccc(Br)s2)cc1 | i | 1.1 | -1.2 | -1 | 101 | 3 | 62
COc1ccc(-c2cc(C(=O)NC(Cc3cc4ccccc4[nH]3)C(=O)O)c(C)o2)cc1OC (stereo not drawn) | i | 1 | . | 0 | 96 | . | .
Cc1cccc(C(C)C)c1NC(=O)COC(=O)Cc1ccsc1 | i | 0.98 | -0.8 | 0 | 101 | . | .
COC(=O)c1ccc(CSc2nnc(SCc3ccc(C(=O)OC)o3)s2)o1 | i | 0.95 | -0.9 | -11 | 94 | -77 | 90
CC(=O)Nc1nonc1NC(=O)CSc1ncn[nH]1 | i | 1 | -0.9 | -4 | 76 | . | .
Cc1ccc(S(=O)(=O)N2CCC(C(=O)NCCc3ccccc3)CC2)cc1 | i | 0.7 | -2.2 | 2 | 98 | 13 | 35
CC(C)CCNC(=O)C(c1ccco1)N(CCCO)C(=O)Cn1nnc(-c2ccc(F)cc2)n1 (stereo not drawn) | i | 1 | . | -4 | 78 | . | .
CCCC(=O)Nc1ccc(NC(=O)c2ccccc2Cl)nc1 | i | 1.1 | -2.6 | 18 | 102 | -25 | 77

One compound at a time, as listed above.
COC(=O)CSc1nc2ccc(NC(C)=O)cc2s1 in the list: HSV replic up = i; HSV replic up primary fold = 0.97; GALR2 agonist = -1.3; PKD1 kinase inh = 2; RGS16-Gao = 104; INS promoter inh = .; INS promoter inh cell count = .
CC(C)CCNC(=O)C(c1ccco1)N(CCCO)C(=O)Cn1nnc(-c2ccc(F)cc2)n1 (stereo not drawn) in the list: HSV replic up = i; HSV replic up primary fold = 1; GALR2 agonist = .; PKD1 kinase inh = -4; RGS16-Gao = 78; INS promoter inh = .; INS promoter inh cell count = .

Following part
SMILES | HSV replic up | HSV replic up primary fold | GALR2 agonist | PKD1 kinase inh | RGS16-Gao | INS promoter inh | INS promoter inh cell count
O=C(CCCCO)CCCCCCCC[C@H]1N[C@H](CO)[C@H](O)[C@@H]1O[C@@H]1O[C@H](CO)[C@@H](O)[C@H](O)[C@H]1O | i | 0.91 | -0.2 | -8 | 100 | -15 | 113
Cc1sc2nc(CSc3nnnn3-c3ccc(Cl)cc3)[nH]c(=O)c2c1C | i | 1 | -0.5 | 2 | 92 | . | .
O=C(COc1ccccc1C(=O)c1cnn(-c2ccccc2)c1)Nc1ccc2ccccc2c1 | i | 0.87 | -1.4 | 1 | 81 | . | .
Cc1ccc(C2NC(=S)NC3=C2C(=O)CCC3)cc1 (stereo not drawn) | i | 0.96 | . | 1 | 99 | . | .
COc1ccc(CC(=O)OC(C)CN2CCOCC2)cc1 (stereo not drawn) | i | 1 | . | -5 | 86 | -14 | 73
COc1ccc(C2/C(=C(/O)c3ccccc3)C(=O)C(=O)N2c2ccccn2)c(OC)c1 (stereo not drawn) | i | 0.93 | -2.3 | 4 | 101 | -35 | 95
O=C(NCc1ccccn1)C1CCN(S(=O)(=O)c2cccs2)CC1 | i | 0.88 | -1.7 | -8 | 86 | . | .
Cc1ccc(C2CC(=O)N3CN(Cc4ccco4)CSC3=C2C#N)cc1 (stereo not drawn) | i | 0.87 | -1.5 | -8 | 85 | -45 | 68
Cc1nc2ccccc2c2oc(C(=O)NCc3ccc4c(c3)OCO4)cc12 | i | 0.97 | -1.1 | 6 | 90 | . | .
Cc1ccc(NC(=O)CCC(=O)NNC(=O)c2ccccc2Cl)c(C)c1 | i | 0.96 | . | -8 | 100 | . | .
Cc1cc(Cl)ccc1OCCCC(N)=O | i | 0.89 | -2.0 | -7 | 102 | . | .
COCCNC(=O)c1cc2c(-c3ccccc3F)nn(C)c2s1 | . | . | -0.4 | 4 | 111 | -26 | 93
